TRPML1 agonist – activates the human TRPML1 channel; Q9GZU1; TRPML1-expressing cells, Ca2+ dye fluorescence, FDSS; host cell line not named in the record; reference of the full effect not given here; activation, % (concentration not given with the values); actives 0.12% (n = 410,000); AID 624414; in the data active = activation above about 50%; inconclusive = about 30% to 50%; inactive = below about 30%; also: 0% is about no effect; the text of the record puts the active cut at 80%
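In this qHTS format, compounds were pin-transferred onto Ca8-dye-loaded TRPML1-DL cells induced with Tet overnight, and intracellular Ca2+ fluorescence was recorded kinetically for 110 s after a 10 s baseline. A subsequent 4uM final 54-4 (EC80) addition followed by a second 110 s read served as the antagonist phase.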
D2 potentiator – human D2 receptor positive allosteric modulation. actives 0.23% (n = 360,000). DiscoveRx D2 beta-arrestin cells, luminescence, 90 min; 100% = 57 uM dopamine signal. AID 624464. potentiation, % (test concentration not listed). P14416; active = potentiation of 50% or more; inconclusive = 30% to 50%; inactive = 30% or less;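 also: compound concentration not given in the record; tested on top of an EC20 dose of dopamine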
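PathHunter beta-arrestin assay in DiscoveRx D2 cells. Compounds were added with an EC20 of dopamine (50 nM final) for 90 min at 37 deg C. Luminescence was read 1 h after detection reagent, with 57 uM dopamine as the EC100 control.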
TRPV1 potentiator – enhances activation of the human vanilloid receptor TRPV1 | actives 0.02% (n = 320,000) | TRPV1-expressing cells, Fluo-8 calcium influx, capsaicin EC20 potentiation; host cell line not named in the record; control for the full effect not named in the record | potentiation, % at 8.33 µM; active means potentiation above 80%; inconclusive means 30% to 80%; inactive means below 30%; also: 0% is about no effect
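TRPV1-expressing cells were cultured overnight at 35.5C and loaded with Fluo-8 calcium dye for 40 to 90 min at room temperature. After a 10 s baseline, compound was added and calcium influx was read kinetically for 3 min (ex 480/em 520 nm).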
CtBP-E1A blk – blocks the CtBP interaction with E1A; AID 651724; activity change, % (concentration not given with the values); AlphaScreen GST-E1A/His-CtBP binding, 1536-well; hits give low values; control for the full effect not named in the record; actives 0.49% (n = 340,000); in the data active means activity change below about -65%; inconclusive means about -30% to -65%; inactive means above about -30%; also: % is scaled to controls: 0 for no effect and ±100 for the full control effect
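In 5 uL wells, 23 nL compound meets equimolar GST-E1A and His-CtBP (5X stock 125 nM each) for 2 h, 37 °C. Beads (5X, 50 ug/mL) then 1 h, 37 °C, dark.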
Six1-Eya2 inh – inhibitors of human Six1/Eya2 interaction | actives 0.56% (n = 360,000) | activity change, % (no concentration beside the values) | AlphaScreen GST-Six1/His-Eya2 binding, biochemical; hits give low values; control for the full effect not named in the record; in the data active = activity change below about -65%; inconclusive = about -30% to -65%; inactive = above about -30%; also: % is scaled to controls: 0 for no effect and ±100 for the full control effect; compound concentration not given in the record
Target sequence (O00167 whole entry, looked up): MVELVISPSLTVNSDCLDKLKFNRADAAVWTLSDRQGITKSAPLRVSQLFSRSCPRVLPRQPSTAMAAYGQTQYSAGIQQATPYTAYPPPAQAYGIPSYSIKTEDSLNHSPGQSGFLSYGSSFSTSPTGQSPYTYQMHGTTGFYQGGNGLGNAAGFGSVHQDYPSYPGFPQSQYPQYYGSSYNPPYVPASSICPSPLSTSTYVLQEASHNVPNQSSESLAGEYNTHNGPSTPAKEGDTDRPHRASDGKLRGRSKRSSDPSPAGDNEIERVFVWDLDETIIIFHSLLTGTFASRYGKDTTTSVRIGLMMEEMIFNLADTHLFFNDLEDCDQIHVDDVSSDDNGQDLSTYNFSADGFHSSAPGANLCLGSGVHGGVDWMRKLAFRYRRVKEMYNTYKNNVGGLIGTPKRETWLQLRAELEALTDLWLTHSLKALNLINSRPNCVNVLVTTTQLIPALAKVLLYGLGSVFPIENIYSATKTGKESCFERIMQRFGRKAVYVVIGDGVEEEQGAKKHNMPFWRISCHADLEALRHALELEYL
Target sequence (Q15475 whole entry, looked up): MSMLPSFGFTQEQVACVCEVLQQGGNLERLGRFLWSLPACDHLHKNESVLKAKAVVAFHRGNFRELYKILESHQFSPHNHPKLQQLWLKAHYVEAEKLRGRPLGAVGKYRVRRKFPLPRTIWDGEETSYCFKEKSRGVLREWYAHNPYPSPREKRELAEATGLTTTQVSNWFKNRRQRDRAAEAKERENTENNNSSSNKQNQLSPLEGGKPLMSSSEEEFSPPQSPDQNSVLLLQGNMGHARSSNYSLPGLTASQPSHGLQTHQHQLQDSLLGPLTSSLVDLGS
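Six1/Eya2 binding was read as AlphaScreen signal after compounds were pinned into GST-Six1 plus His-tagged Eya2 (5X stock 250/500 nM) in pH 8.0 Tris/NaCl/TCEP buffer, beads added, then incubated 1 h, 37 C, dark.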
TRPML1 blocker – blocks the human TRPML1 channel. Q9GZU1. TRPML1-inducible cells, Ca2+ dye fluorescence, FDSS; hits give low values; inhibition of EC80 agonist-evoked calcium signal. activity change, negative = inhibition, % (no concentration beside the values). actives 0.02% (n = 390,000). AID 624415; in the data active means activity change below about -50%; inconclusive means about -30% to -50%; inactive means above about -30%;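 also: stimulus is agonist 54-4 at its EC80 concentration; % is scaled to controls: 0 for no effect and ±100 for the full control effect; compound concentration not given in the record; the text of the record puts the active cut at -80%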
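TRPML1-DL cells, Tet-induced overnight (~16 h, 37 °C) at 1,500 cells/well, were loaded with Ca8 no-wash dye plus quencher for 45-90 min at room temperature. Compounds were pinned during FDSS kinetic reading; agonist 54-4 at EC80 (4 uM final) then added.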
The depositor's hits bear a star; u = inconclusive; x = not tested or not shown.

SMILES | TRPML1 agonist | D2 potentiator | TRPV1 potentiator | CtBP-E1A blk | Six1-Eya2 inh | TRPML1 blocker
Cc1ccnc(NS(=O)(=O)c2ccc(NC(=O)c3ccc(S(=O)(=O)N4CCOCC4)cc3)cc2)n1 | -0.1 | -11 | -4 | 2 | -5 | 1
Cc1cc[n+](-c2[nH]c(=O)sc2/C=N/N=C(\[O-])c2ccccc2)cc1C | 2.3 | -5 | -3 | -6 | -6 | 5
CCN1CCN(c2ccc(NC(=O)c3cccc4ncccc34)cc2)CC1 | 0.5 | -10 | -11 | -2 | -1 | 20
CCc1ccccc1NC(=S)N(CCCN1CCOCC1)Cc1cccs1 | -1.1 | -18 | -10 | 7 | -8 | 15
CC(CC(=O)N1CCc2ccccc21)c1ccccc1 (stereo not drawn) | 1.2 | -41 | -10 | 7 | 6 | -3
Cc1cc(C)nc(SCc2ccc(C(=O)N/N=C/c3ccncc3)cc2)n1 | 1.1 | -5 | 4 | -16 | -3 | 0
CS(=O)(=O)N(CC(=O)NCCC1=CCCCC1)C1CCCCC1 | -0.8 | -5 | 3 | -6 | -20 | -10
Cc1nn(Cc2n[nH]c(=S)n2Cc2ccccc2)c(C)c1Cl | -0.3 | -1 | 7 | -5 | 10 | -2
CCCSc1nsc(N)n1 | 0.1 | -7 | 8 | -4 | 3 | 0
C=CCNc1nc(Nc2ccc(OC)cc2)nc(OCC)n1 | 0.2 | -27 | -5 | 7 | -4 | 3
Cc1ccc(OC(=O)Nc2ccccc2)cc1 | -0.2 | -3 | 0 | 12 | 2 | -6
O=C(COc1ccc2c3c(c(=O)oc2c1)CCC3)N1CCN(c2ccc(F)cc2)CC1 | 1.2 | -8 | 7 | -25 | -14 | -20
CC(=O)Nc1ccc(OCC(=O)N(CC(C)C)C2CCS(=O)(=O)C2)cc1 (stereo not drawn) | -0.1 | -19 | 3 | 6 | 0 | 3
COc1cc(/C=N/NC(=O)CCN2CCN(C)CC2)cc2c1OCO2 | 0.1 | -11 | -6 | 10 | 9 | -9
CCNS(=O)(=O)c1ccc(CCC(=O)N2CCN(Cc3ccccc3)CC2)cc1 | 1.0 | 0 | 2 | 1 | 3 | 19
Cc1ccc(NC(=O)CN2C(=O)COc3ccc(S(=O)(=O)N4CCCC4)cc32)cc1C | 0.4 | -1 | -6 | -9 | -3 | -16
COc1cc(/C=C2\SC(=O)N(CCN)C2=O)ccc1OS(=O)(=O)c1cc(C)ccc1C | -0.3 | -3 | 4 | -12 | 2 | 2
O=C(C=Cc1ccccc1)c1cc(Br)ccc1O | 0.4 | 4 | x | 0 | 30 | 5
COc1ccc(Cl)cc1NC(=O)CN1CCCCCC1 | 2.6 | -13 | -14 | -6 | 10 | 61
NC(=O)CCC(NS(=O)(=O)c1ccc(Cl)cc1)C(=O)NCc1ccccc1Cl (stereo not drawn) | -0.5 | -3 | -5 | 24 | 7 | -5
COc1ccccc1N(Cc1ccccc1)S(=O)(=O)c1cccc(C(=O)Nc2cc(C)ccn2)c1 | 1.5 | -12 | -13 | 0 | -8 | 50
COCCn1cnc2c1c(=O)n(CC(=O)Nc1cc(C)on1)c(=O)n2Cc1ccccc1 | -0.9 | -4 | 4 | 1 | 4 | -18
CCC(=O)n1nc(-c2ccccc2)nc1SCC(=O)Nc1ccc(C)cc1 | 1.4 | 3 | 3 | -18 | -17 | -6
COc1ccc(C(=O)OCC(=O)Nc2ccc3c(c2)OCCO3)c(OC)c1 | 1.6 | 6 | 1 | x | -2 | 16
CCOc1ccc(C(=O)COC(=O)Cn2cnc3c2c(=O)n(C)c(=O)n3C)cc1 | 0.7 | -16 | 19 | -12 | 5 | -6

Following part:
SMILES | TRPML1 agonist | D2 potentiator | TRPV1 potentiator | CtBP-E1A blk | Six1-Eya2 inh | TRPML1 blocker
COc1cc(OC)cc(C(=O)NCC(=O)OCc2cc(=O)oc3cc(OC)ccc23)c1 | 2.0 | -2 | 6 | 0 | -3 | 5
CC1=CCC(C(=O)O)(C(=O)N/N=C/c2cccs2)C(c2ccc([N+](=O)[O-])cc2)C1 (stereo not drawn) | 0.4 | -5 | -13 | 6 | -6 | -7
CCCc1ccc(OCCNC(C)=O)cc1 | -0.2 | -10 | -11 | 7 | 0 | -4
Cc1ccc(C)c(-n2cc(CNC(C)Cn3cncn3)c(-c3ccccc3)n2)c1 (stereo not drawn) | 1.0 | -2 | -13 | -3 | -6 | 33
CC(C)Oc1cccc(C(=O)Nc2ccc(NC(=O)c3ccco3)cc2)c1 | 2.7 | -5 | 14 | -4 | 3 | -7
CCC(C)NC(=O)C1CCC(CNS(=O)(=O)c2ccc3c(c2)N(C(C)=O)CCO3)CC1 (stereo not drawn) | -0.6 | -7 | 21 | 5 | 1 | 25
CCCc1nnc(NC(=O)CCC(=O)N2CCN(c3ccccc3)CC2)s1 | -1.0 | -10 | 3 | -10 | -1 | -10
O=C(CCCNC(=O)/C(=C/c1ccc(F)cc1)NC(=O)c1ccccc1)OCc1ccccc1 | 1.2 | -3 | 2 | 6 | -2 | 10
CCCCNC(=O)C1CCCN1C(=O)Nc1cccc(OC)c1 (stereo not drawn) | 0.6 | -8 | 6 | -1 | 1 | 10
COc1ccc(C)cc1-n1nnnc1SCc1cc(=O)n2cc(C)ccc2n1 | 3.0 | 5 | -6 | 1 | -3 | -2
CN(Cc1cccs1)C(=O)Cc1csc(-c2ccccc2)n1 | 4.1 | -8 | 2 | -11 | -4 | 3
CC(OC(=O)Cn1cnc2c1c(=O)n(C)c(=O)n2C)C(=O)c1ccccc1 (stereo not drawn) | 0.8 | -6 | 10 | 5 | 8 | 11
COc1ccccc1Nc1nc(Cl)c(C=O)s1 | 0.0 | 0 | -5 | 0 | -6 | -7
CC(C)(C)NC(=O)CSc1nc(O)cc(=O)[nH]1 | 0.4 | -5 | -8 | 8 | -2 | 23
CCOC(=O)c1[nH]c(C)c(/C(O)=C2\C(=O)C(=O)N(CCN3CCOCC3)C2c2cccs2)c1C (stereo not drawn) | 0.4 | -18 | -5 | -4 | 2 | -27
CC1CCN(Cc2ccc(-c3nn[nH]n3)cc2)CC1 | -0.1 | -19 | -3 | 4 | 3 | 4
COC(=O)c1cc(OC)c(OC)cc1NC(=S)N1CCN(C/C=C/c2ccccc2)CC1 | -0.6 | -21 | -14 | -26 | u | -13
O=C1NC(=O)c2cc3ccccc3cc21 | -0.3 | -1 | -3 | x | -6 | 9
Cc1ccc(C(=O)NCC(=O)OCC(=O)Nc2cccc(S(=O)(=O)N3CCCC3)c2)cc1C | 1.8 | -5 | -15 | -2 | 1 | 6
CCC(=O)Nc1cccc(-c2nc3ccccc3o2)c1 | -0.3 | 7 | -13 | 0 | -4 | 9
CC(C)CC(C)NC(=O)c1ccc(C(F)(F)F)cc1 (stereo not drawn) | x | -18 | -5 | 7 | 28 | x
CCCNC(=O)C1CN(C(=O)c2nn(Cc3ccccc3)c(=O)c3ccccc23)c2ccccc2O1 (stereo not drawn) | 1.8 | 6 | -12 | 2 | 4 | 5
CCN(CC)S(=O)(=O)c1ccc(N2CCOCC2)c(NC(=O)Cc2ccc(Cl)cc2)c1 | -0.2 | -6 | 3 | 9 | -4 | -1
CC(C)Oc1ccc(C2NC(=O)NC2=O)cc1 (stereo not drawn) | -0.5 | 0 | -3 | -5 | 12 | 20
COC(=O)[C@H](Cc1ccccc1)NCCCn1cnc(C(=O)Nc2ccc(C)c(C)c2)n1 | 1.7 | -3 | x | 25 | -2 | 0

Reformatted field by field: part of the list above.
> Cc1ccc(C)c(-n2cc(CNC(C)Cn3cncn3)c(-c3ccccc3)n2)c1 (stereo not drawn)
  TRPML1 agonist: 1.0 | D2 potentiator: -2 | TRPV1 potentiator: -13 | CtBP-E1A blk: -3 | Six1-Eya2 inh: -6 | TRPML1 blocker: 33
> CC(C)Oc1cccc(C(=O)Nc2ccc(NC(=O)c3ccco3)cc2)c1
  TRPML1 agonist: 2.7 | D2 potentiator: -5 | TRPV1 potentiator: 14 | CtBP-E1A blk: -4 | Six1-Eya2 inh: 3 | TRPML1 blocker: -7
> CCC(C)NC(=O)C1CCC(CNS(=O)(=O)c2ccc3c(c2)N(C(C)=O)CCO3)CC1 (stereo not drawn)
  TRPML1 agonist: -0.6 | D2 potentiator: -7 | TRPV1 potentiator: 21 | CtBP-E1A blk: 5 | Six1-Eya2 inh: 1 | TRPML1 blocker: 25

The list goes on:
SMILES | TRPML1 agonist | D2 potentiator | TRPV1 potentiator | CtBP-E1A blk | Six1-Eya2 inh | TRPML1 blocker
CCn1c(C)c(C2=CCN(S(=O)(=O)c3ccccc3)CC2)c2ccccc21 | 0.4 | 4 | -8 | -20 | u | 4
S=C1SCN(CCN2CCOCC2)CN1Cc1ccccc1 | 0.2 | 0 | -16 | 2 | 4 | 16
NC1=CC(=O)C(=O)c2ccccc21 | 0.9 | 19 | x | -24 | 1 | -9
O=P(c1ccccc1)(c1ccccc1)c1nc(-c2ccccc2)oc1NCc1ccccc1 | 0.9 | -13 | -17 | 0 | 3 | -9
CC(C)COc1ccc(C(=O)N(CC(=O)Nc2ccccc2C(F)(F)F)Cc2ccco2)cc1 | 3.9 | -7 | 20 | -6 | -4 | 54
COc1cc(/C=C/C(=O)Nc2cccc(S(=O)(=O)N3CCOCC3)c2)ccc1OCC#N | 0.9 | 2 | -1 | u | -13 | -6
CCCC(=O)OCC(=O)Nc1ccc(N=Nc2ccccc2)cc1 | -0.2 | -3 | -12 | -9 | -23 | 10
Cc1ncc([N+](=O)[O-])n1CC(=O)N/N=C/c1ccccc1F | -0.1 | -7 | -3 | x | 4 | -10
Fc1cccc(Cl)c1C1SCc2nc3ccccc3n21 (stereo not drawn) | -1.3 | -7 | x | -23 | 1 | x
CCOC(=O)C1(CC2CC2)CCN(C(=O)c2cc(C3CC3)nc3ccccc23)CC1 | -0.2 | 0 | -2 | -3 | -1 | 15
CN(C)c1ccc(/C=C(/NC(=O)c2ccccc2Cl)C(=O)NCCN2CCOCC2)cc1 | 1.0 | 2 | 3 | x | 1 | 11
O=C(Cc1ccsc1)Nc1ccc(S(=O)(=O)C(F)F)cc1 | 0.5 | 1 | -9 | 7 | 3 | 8
Cc1ccc(-c2nnc(SCC#CCOC(=O)c3ccco3)o2)cc1 | 2.7 | -8 | -2 | 14 | 7 | -5
Cc1cc(C(=O)NCC(=O)Nc2c(C)cccc2C)c(C)o1 | 0.7 | -10 | 12 | -11 | -10 | 4
O=C1OC(Nc2ccc(Br)cc2F)c2ccccc21 (stereo not drawn) | -0.6 | -18 | 27 | 0 | 9 | -3
CN1CCN(c2ccc(NC(=O)CSc3nnnn3-c3ccccc3F)cc2)CC1 | 2.0 | -16 | 4 | -3 | -3 | 17
O=C(OC1CCOC1=O)c1cccc(S(=O)(=O)Nc2ccc(F)cc2)c1 (stereo not drawn) | -0.7 | 1 | 3 | 1 | 3 | -9
CCc1nc2c(OCc3ccc(Cl)cc3Cl)cccn2c1N(C=O)Cc1ccc(OC)cc1 | 0.0 | 3 | x | 0 | u | x
CC(Oc1ccccc1Cl)C(=O)N1CCCN(C)CC1 (stereo not drawn) | 1.1 | 0 | -1 | 0 | 21 | 1
Cc1ccc(S(=O)(=O)N2CCCCC2)cc1NC(=O)CNC(C)c1ccc(Cl)c(Cl)c1 (stereo not drawn) | -0.1 | -29 | 2 | 1 | -9 | 16

Screening results deposited in PubChem BioAssay by National Center for Advancing Translational Sciences (NCATS).
